# Menin MLL FP FL = menin-MLL binding inhibition, fluorescein peptide | 290,000 tested, under 10 active | Fluorescence polarization, fluorescein-MLL peptide displacement from menin | FP activity change, % at 61.4 µM | AID 1766; inconclusive = falling polarisation curve, or a change in total fluorescence; inactive = total fluorescence flat and polarisation flat or rising; no compound was filed as active; the % refers to the polarisation; negative = inhibition;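 further: % of control where 0% means no effect; inhibitors lower the polarisation; unlabelled MLL peptide was the positive control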
# Sfp PPTase inh = Sfp phosphopantetheinyl transferase inhibition. Q9F4F7. Biochemical Sfp PPTase activity, qHTS. Potency, µM, without a hit: max response, negative = inhibition, usual class: inhibitors. 310,000 tested, 3.5% active. AID 1490; active means well fitted inhibition curve with a large enough effect; inconclusive means small, poorly fitted or top-dose-only effect, or another doubt; inactive means no such curve, though single readings can be large or run the other way;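 further: the enzyme is Sfp with the accession as filed and its product quenches rhodamine fluorescence; potency means the concentration at half of the fitted maximal effect; 0% = enzyme reaction without inhibitor and -100% = no enzyme wells; top concentration of the series not given in the record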
#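 Fluorescence-quenching assay with 15 nM Sfp, 5 uM rhodamine-CoA and 12.5 uM BHQ-2-labelled ybbR peptide in pH 7.6 Hepes/MgCl2 buffer. Enzyme was pre-incubated with compound for 15 min at room temperature. Rate was taken from the 30-min fluorescence change (525/598 nm).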
# gsp ag = agonists of gsp mutant (McCune-Albright syndrome) | gsp mutant cells, cAMP HTRF, 30 min; control for the full effect not named in the record | Potency, µM (doses to about 76.9 µM), for inactives: at the top dose activation (cAMP increase), hits mostly activators | 340,000 tested, 0.13% active; active = well fitted activation curve with a large enough effect; inconclusive = small, poorly fitted or top-dose-only effect, or another doubt; inactive = no such curve, though single readings can be large or run the other way; cell line not stated here;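 further: phosphodiesterase inhibitor Ro 20-1724 added with compounds to block cAMP breakdown; potency means the concentration at half of the fitted maximal effect; nearly all actives have a fitted effect of over 60% in size; about a fifth of the inactives were tested at one dose only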
#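 Cells stably selected in G418 were plated at 2000/well, grown 16-24 hr, then given compounds in DMSO with the PDE inhibitor […] (300 uM solution added) for 30 min at 37C; cAMP was read by HTRF.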
# D2 ag = human D2 receptor agonism in beta-arrestin assay | activation, % (no concentration beside the values) | AID 624465 | 360,000 tested, 0.084% active | DiscoveRx PathHunter D2 beta-arrestin, luminescence, 90 min; 100% = 57 uM dopamine signal; in the data active = activation above about 40%; inconclusive = about 15% to 40%; inactive = below about 15%; further: compound concentration not given in the record; the text of the record calls up to 30% inactive
# Target sequence (P14416 whole entry, looked up): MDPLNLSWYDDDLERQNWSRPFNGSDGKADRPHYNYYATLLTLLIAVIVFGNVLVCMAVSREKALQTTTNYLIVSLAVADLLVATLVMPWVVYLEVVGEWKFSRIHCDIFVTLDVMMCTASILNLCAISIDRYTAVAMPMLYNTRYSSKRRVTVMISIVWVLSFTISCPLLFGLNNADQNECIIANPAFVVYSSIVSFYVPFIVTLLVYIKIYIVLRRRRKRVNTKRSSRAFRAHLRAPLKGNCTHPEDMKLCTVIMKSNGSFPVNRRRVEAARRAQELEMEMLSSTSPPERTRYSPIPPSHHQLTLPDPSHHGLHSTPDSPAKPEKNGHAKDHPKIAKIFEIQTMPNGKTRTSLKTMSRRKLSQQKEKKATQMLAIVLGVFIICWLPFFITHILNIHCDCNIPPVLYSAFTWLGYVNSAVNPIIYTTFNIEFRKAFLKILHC
#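 DiscoveRx PathHunter D2 beta-arrestin cells (2,100/well) attached overnight, then compound-stimulated 90 min at 37 C in HBSS/10 mM HEPES/0.1% Tween-20 buffer; beta-galactosidase complementation read by luminescence after 1 h at ambient temperature. Dopamine 57 uM final (EC100) as control.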
# PINK1 expr mod = PINK1 expression modulation; Potency, µM (highest dose often 76.6 µM), for inactives: at the highest dose activation (PINK1 increase), usual class: activators; 410,000 tested, 0.2% active; PINK1 immunofluorescence, high-content cytometry, 24 h; active = well fitted activation curve with a large enough effect; inconclusive = small, poorly fitted or top-dose-only effect; inactive = flat fitted curve, though single readings scatter; cell line not stated here;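 further: potency means the concentration at half of the fitted maximal effect; % of control where 0% means no effect; nearly all actives have a fitted effect of over 65% in size; a mitochondrial uncoupler was the plate control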
#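 Readout is PINK1 immunofluorescence, quantified alongside mitochondrial, cell and nuclear markers by laser-scanning microplate cytometry. Cells from a stable line were exposed to compound titrations (5 concentrations) for 24 hours, with CCCP controls.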
# ClpP mod = qHTS Assay for Activators of ClpP | purified B. subtilis ClpP, FRET peptide cleavage, 20 min | Potency, µM (top dose mostly 57.5 µM), without a hit: top-dose activity change, negative = active | 340,000 tested, 1.9% active | AID 651965, 2013; active = well fitted falling curve with a large enough effect; inconclusive = small, poorly fitted or top-dose-only effect; inactive = no such curve, though single readings can be large or run the other way; further: potency means the concentration at half of the fitted maximal effect; the source files actives as falling curves though it sought activators and does not explain the sign; nearly all actives have a fitted effect of over 65% in size; many hits overshoot -100%
# Target sequence (P80244 whole entry, looked up): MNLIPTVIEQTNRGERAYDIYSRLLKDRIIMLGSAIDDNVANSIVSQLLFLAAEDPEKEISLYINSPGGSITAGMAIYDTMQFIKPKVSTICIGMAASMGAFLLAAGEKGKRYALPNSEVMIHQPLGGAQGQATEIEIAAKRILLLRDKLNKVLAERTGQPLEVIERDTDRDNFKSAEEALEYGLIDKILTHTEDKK
#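 FRET quenching reversal measured ClpP activation: 10 microg/mL B. subtilis ClpP at pH 8 with the FRET-FV decapeptide, read at 430 nm after 320 nm excitation. The 20-min minus 0-min signal was scaled between DMSO/no-enzyme wells and ADEP (5.8 microM final).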
# gsp antag = antagonists of gsp mutant (McCune-Albright syndrome); gsp-mutant cells, cAMP HTRF, 30 min; control for the full effect not named in the record; Potency, µM (titrated, usually from 76.9 µM), for inactives: at the top dose activity change, negative = inhibition, most hits filed as inhibitors; 340,000 tested, 0.4% active; active = falling curve of any shape with a large fitted effect; inconclusive = falling curve, mostly with a smaller effect; inactive = flat or rising curve; cell line not stated here;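 further: intracellular cAMP measured with PDE inhibitor Ro 20-1724 present during compound exposure; potency means the concentration at half of the fitted maximal effect; on the % scale 0 is the no-effect control and ±100 the full control effect; nearly all actives have a fitted effect of over 65% in size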
#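 Cells, 2000/well, grown 16–24 h in DMEM 10% FBS with 0.5 mg/ml G418, then compounds plus […] (300 uM addition stock), 30 min at 37C. cAMP read by HTRF (cAMP-d2 and anti-cAMP antibody-K in lysis buffer) after 30 min RT.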
# Active calls of the source: *; ? = inconclusive; / = no result given; & = joins results of further samples; [ ] = another dose, or the depositor's remark. This is a random part of the collection. About 5.1% of those tested had a hit in this group.
SMILES,Menin MLL FP FL,Sfp PPTase inh,gsp ag,D2 ag,PINK1 expr mod,ClpP mod,gsp antag
Nc1c(C(=O)NCc2ccccc2)sc2nc3c(cc12)C(=O)CCC3,0.1,-10%,-46%[inhibitor],2.6,7.3%,-0.3%,5%
CCOC(=O)CN1C(=O)N[C@@H](CCc2ccccc2)C(C(=O)OC)=C1C,-3.1[11.7 µM],-2%,/,-1.9,2.5%,0.8%,1%
O=C(COc1ccc(S(=O)(=O)NC2CCCCC2)cc1)NC1CCCC1,1.8,2%,5%,2.3,-1.7%,1.6%,1%
O=C(COC(=O)c1ccc2c(c1)OCCO2)NCc1ccccc1,4.8,4%,?,-0.6,6.0%,-4.1%,1%
O=C(NCc1ccc2c(c1)OCO2)C1CCN(S(=O)(=O)N2CCOCC2)CC1,0.0,16%,-26%,-1.7,12%,0.8%,10%
COC(C[C@@H](O)C[C@H](O)COCc1ccccc1)OC,0.3,23%,/,-1.7,-0.7%,-1.3%,15%
Cc1ccc2nc(-c3ccccc3)c(Cc3cccc(Cl)c3)n2c1,/,/,/,-5.3,?,4.7%,/
CC/C(=N\OC(=O)c1ccc(OC(C)C)cc1)c1ccc(C)cc1,0.2,?,-3%[15.4 µM],-7.1,18%,2.3%,-12%
O=C(NCCCCCCNC(=O)OCc1ccccc1)OCc1ccccc1,/,/,1%[15.4 µM],-1.5,4.5%,-1.3%,1%
CN(C)c1nc(N(C)C)nc(N(C)C)n1,6.2,12%&-4%&11%,/,-7.0,0.6%,-2.8%,-8%
N/C(=N\c1nc2ccccc2o1)NC(=O)c1ccccc1F,9.9,25%,?,-0.6,15%,-0.7%,1%
Cc1onc(-c2ccccc2Cl)c1C(N)=O,0.7,16%,4%,-4.7,0.0%,-0.8%,8%[15.4 µM]
COc1ccc(CNC(=O)COC(=O)c2ccc(S(=O)(=O)N3CCOCC3)cc2)cc1,/,/,37%,1.0,1.3%,/,?
Cc1ccc(OCCCC(=O)NC2CCCCC2)cc1,0.6,12%,-6%[15.4 µM],-4.5,-0.8%,2.5%,-14%
Cc1cc(NC(=O)c2cc(-c3ccc(Br)cc3)on2)no1,6.4,22%,-22%[15.4 µM],-1.3,-1.3%,/,-9%
CCOC(=O)c1cccc(NC(=O)c2ccc3c(c2)C(=O)N(CC2CCCO2)C3=O)c1 (centres undefined),/,-16%,17%,9.8,2.7%,-0.4%,-30%
COCCNC(=O)Nc1ccc2nc(C)sc2c1,0.8,9%,0%,-2.6,1.9%,-11%,20%
Cc1cnc(C(=O)OCC(=O)c2c[nH]c3ccccc23)cn1,/,/,-7%,-5.2,1.5%,0.9%,9%
CCOc1cc2[nH]c(=S)n(CCN3CCCCC3C)c(=O)c2cc1OCC (centres undefined),-2.9,-4%,5%,-1.8,/,0.8%,-9%
CCOc1ccccc1C(=O)N[C@H](C(=O)NCc1ccccc1)C(C)C,2.9,13%,2%[15.4 µM],-1.4,-0.6%,/,11%
COc1ccc(N2CCN(C3CCCN(Cc4cccc(C)c4)C3)CC2)cc1 (centres undefined),-4.3,-1%,-30%,-1.1,4.4%,/,3%
Cc1ccc(C)c(OCc2cc(C(=O)N3C[C@@H](C)O[C@@H](C)C3)no2)c1,/,-21%,-67%[inhibitor],-2.4,2.9%,-3.5%,-1%
O=C(Cc1cccc(NC(=O)C2CCCN(C(=O)CCc3ccccc3)C2)c1)Nc1ccc(C(=O)N2CCOCC2)cc1 (centres undefined),/,/,/,-1.8,0.7%,-0.5%,1%
CC(=O)Nc1ccc(NC(=O)c2nc(-c3ccccc3)oc2C)cc1,-4.6,-9%,-14%,0.6,7.7%,/,-2%
CCOC(=O)C1=C(O)C(=O)NC(c2ccccc2)=C(OCC)C1,4.2,-2%,-68%[inhibitor],-2.2,5.2%,-3.0%,-8%
O=C(O)CC1SC(=O)N(CC(=O)c2ccccc2)C1=O (centres undefined),1.0,15%,4%[15.4 µM],-2.7,0.8%,1.7%,9%
COc1ccc(CNC(=O)C2CCN(S(=O)(=O)c3ccccc3)CC2)cc1,-1.5,17%,-3%,2.9,0.7%,-2.2%,5%
COc1ccc(OC)c(/C=C/C(=O)N2CCCc3ccccc32)c1,1.0,2%,11%[15.4 µM],4.2,-1.0%,/,-33%
CC(C)Oc1ccc(C(=O)NN2C(=O)NC3(CCCCC3)C2=O)cc1,/,/,23%,-7.2,-1.6%,-4.8%,8%
CCC1CCCCN1C(=O)COC(=O)c1cc2ccccc2cc1O (centres undefined),0.9,-2%,-30%,-1.4,2.0%,-3.0%,-25%
CC1(C)CC(=O)C=C(Nc2ccc(OCC(F)(F)C(F)F)cc2)C1,-0.1,15%,15%,-1.5,1.4%,18µM*,?
Cn1ncc([N+](=O)[O-])c1C(=O)Nc1nc2ccccc2n1CCN1CCCCC1,1.8,12%,4%,-2.8,1.0%,-0.7%,2%
CC(C)Cn1c(C(C)NC(=O)Cc2ccccc2)nc2ccccc21 (centres undefined),4.1,17%,-46%[inhibitor],-0.9,0.3%,0.5%,0%
NC1=NS(=O)(=O)NC1c1ccc(Cl)cc1 (centres undefined),4.4,15%,-10%,1.0,-3.0%,1.0%,11%
Cc1ccc(-n2nc(C)cc2NC(=O)c2ccc(C)s2)cc1,3.6,-4%,12%,-3.7,5.3%[38.3 µM],-0.4%,-7%
COc1ccccc1C(=O)C1CCCN(C(=O)C2=CC(=O)CC(C)(C)O2)C1 (centres undefined),-0.2,13%,-36%[inhibitor],1.1,0.1%,-4.8%,-6%
C=CCn1c(SCc2c(Cl)cccc2Cl)nnc1-c1cccnc1,1.5,12%,-47%[inhibitor],-4.6,-3.5%,1.9%,-6%
Oc1cccc2ccc(/C=C/c3ccccc3Cl)nc12,2.1,9%,-2%,-25,17%,-0.5%,-1%
COc1ccc(S(=O)(=O)N2CCCC2CNC(=O)C(=O)NCc2cccs2)cc1 (centres undefined),/,/,25%,-0.5,5.2%,-6.0%,2%
Cc1ccc(C)c(N2N=C(C(=O)O)CCC2=O)c1,-2.1,11%,9%[15.4 µM],1.4,-1.7%,/,3%
COc1ccc(C2(CNC(=O)c3cc([N+](=O)[O-])cc([N+](=O)[O-])c3)CCCC2)cc1OC,5.1,-4%,2%[15.4 µM],?,-0.1%,2.1%,-10%
O=C(CN1C(=O)NC(Cc2ccccc2)(Cc2ccccc2)C1=O)NCC1CCCCC1,-0.4,9%,-6%,-0.3,2.0%,-2.9%,-1%
Cc1ccc(C(=O)CCC(=O)Nc2cccc(C)c2)cc1,4.7,10%,-7%,-3.5,1.0%,/,-8%
CCN(CC(=O)NCc1ccc(Cl)cc1)C(=O)CCc1ccccc1O,/,9%,11%[15.4 µM],-2.3,-0.1%,/,0%
Cc1ccc(S(=O)(=O)CCC(=O)c2cccc([N+](=O)[O-])c2)cc1,-5.3,22µM*,-5%[15.4 µM],-3.8,-1.2%,-5.1%,10%
COc1ccc(-c2c(C)nn3c(N)c(C#N)cnc23)cc1OC,0.5,2%,-14%[15.4 µM],2.3,0.4%,/,21%
c1ccc(COc2ccccc2CNc2nn[nH]n2)cc1,-2.6,31%[activator],1%,-2.9,0.5%,-0.7%,-4%
Cc1ccc(-c2noc(CCC(=O)Nc3ccccc3C)n2)cc1,-1.6,23%,5%,-4.6,-0.3%[38.3 µM],0.0%,1%
COc1ccc(CCNC(=O)COc2ccc(S(=O)(=O)NC3CCCCC3)cc2Cl)cc1,3.6,6%,-8%,3.3,1.1%[38.3 µM],0.4%,-24%
CCOC1=CC(=O)N(Cc2ccccc2)C1,/,/,-44%[inhibitor],-2.2,-0.1%,1.2%,-15%
Cn1c(C(=O)NCc2ccccc2)cc2oc3ccccc3c21,0.7,-6%,-8%,-0.5,-0.1%,25µM*,-12%
Cc1ccccc1-c1nc(CN2CCC(C(=O)NCCCN3CC(C)CC(C)C3)CC2)c(C)o1 (centres undefined),-5.1,-1%,-8%,-3.8,/,-1.6%,4%
COc1ccc([C@H]2C[C@@H](n3cc(COC(=O)c4ccccc4)nn3)[C@H](O)CN2C(=O)C2CCCCC2)cc1,/,/,8%,-1.6,-0.3%,0.2%,/
COC(=O)C1=C(C)N=C2SCCC(=O)N2C1c1cc(Br)ccc1OC (centres undefined),0.6,11%,-31%[inhibitor],-4.3,-2.2%,-2.1%,-2%
COc1ccc([C@H]2CC(=O)C=C(c3ccc(OC)cc3OC)C2)cc1,/,/,?,-0.8,3.7%,-3.4%,1%
O=C(COC(=O)c1cc[n+]([O-])cc1)Nc1ccc([N+](=O)[O-])cc1Cl,-1.6,3%,-30%,1.7,1.2%,/,-3%
Cc1cnc(C(=O)N2CCCC(C(=O)c3ccc(C(C)(C)C)cc3)C2)cn1 (centres undefined),-3.3,4%,6%,-1.5,0.2%,/,-3%
CCOC(=O)c1sc(=S)n(Cc2ccccc2)c1C,-3.0,-6%,-25%,5.4,0.8%,/,7%
Cn1c(Nc2ccc(Cl)cc2F)nc2cc(-c3ccccc3)sc2c1=O,/,/,/,4.2,6.2%,-20%,/
CCOc1cc(C(=O)OCC(=O)Nc2ccc(Cl)cn2)ccc1OCC(=O)N1CCOCC1,1.9,2%,-18%,1.4,-5.3%,-9.7%,-28%
Cc1c(C(=O)Nc2nccs2)oc2c(Cl)cccc12,/,/,3%[15.4 µM],6.1,14%,/,4%
CCN(CC)S(=O)(=O)c1ccc(N2CCN(S(=O)(=O)c3ccccc3C#N)CC2)nc1,0.4,15%,-34%[inhibitor],0.6,1.6%,-5.2%,-3%
Cc1ccc2c(c1)C1CN(C)CCC1N2S(=O)(=O)c1ccccc1F (centres undefined),/,/,11%,-3.6,0.5%,1.1%,12%
